# Screening results deposited in PubChem by National Center for Advancing Translational Sciences (NCATS).
# Rango-impB inh = inhibitors of Rango-importin beta complex formation. Q14974. Rango CFP/YFP FRET sensor + importin beta, 45 min. Potency, µM (series often up to 92.2 µM), without a hit: at the highest dose inhibition of complex formation. actives 0.031% (n = 340,000); active = rising FRET ratio curve, often small or poorly fitted; inconclusive = mostly compound fluorescence or quenching in the first reads; inactive = flat curves in all reads;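 also: potency is read from the fitted curve at half-maximal effect; 0% = DMSO wells and 100% = buffer wells lacking importin beta; nearly all actives have a fitted effect of over 15% in size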
#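 FRET biosensor Rango (snurportin 1 IBB between N-terminal EYFP and C-terminal Cerulean), 50 nM in PBS/1 mM DTT/0.02% Tween-20/0.1% BSA, preincubated 5 min RT with compound; 0.125 microM importin beta added, 45 min RT, CFP/YFP FRET ratio read.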
# GLA inh pH 4.5 = alpha-galactosidase A (human) inhibition, pH 4.5. purified enzyme, 4-MU-alpha-Gal fluorescence, pH 4.5. AID 1467. P06280. activity change, negative = inhibition, % at 105 µM. 230,000 tested, under 10 active; inconclusive = small, poorly fitted or top-dose-only inhibition, or a rising curve; inactive = flat fitted curve, though single readings scatter; no compound was filed as active;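 also: 0% = full activity with enzyme and -100% = basal without enzyme; dose as in the result columns while the protocol names 77 µM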
# Target sequence (P06280 whole entry, looked up): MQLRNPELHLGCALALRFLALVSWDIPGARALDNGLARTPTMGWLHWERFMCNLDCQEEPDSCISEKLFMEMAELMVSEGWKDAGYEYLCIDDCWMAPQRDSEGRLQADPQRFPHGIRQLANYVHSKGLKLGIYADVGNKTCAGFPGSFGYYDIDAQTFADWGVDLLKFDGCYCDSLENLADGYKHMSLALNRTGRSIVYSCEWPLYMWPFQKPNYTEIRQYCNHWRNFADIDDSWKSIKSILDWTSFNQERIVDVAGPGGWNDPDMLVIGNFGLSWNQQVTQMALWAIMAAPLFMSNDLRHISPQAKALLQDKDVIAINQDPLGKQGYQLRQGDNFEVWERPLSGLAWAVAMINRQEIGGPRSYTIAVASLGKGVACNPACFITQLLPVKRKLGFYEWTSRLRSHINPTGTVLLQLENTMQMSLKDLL
# miR-21 FLuc = miR-21 reporter, rising signal; 340,000 tested, under 10 active; HeLa miR-21 FLuc reporter, luciferase, 48 h; Potency, µM (highest dose often 38.3 µM), inactives show at the highest dose reporter change, positive = more light; active = well fitted rising curve with a large enough effect; inconclusive = small, poorly fitted or top-dose-only effect; inactive = no such curve, though single readings can be large or run the other way;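 also: % of control where 0% means no effect; miR-21 action dims this reporter so a rising signal means less miR-21 action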
#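 Compounds were titrated across several concentrations (up to approximately 40 uM) and incubated 48 hours with HeLa miR-21-FLuc reporter cells (miR-21 target sequence downstream of FLuc, endogenous miR-21). Readout was firefly luciferase luminescence after lytic detection reagent.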
# Rango dissoc inh = inhibition of RanGTP-driven Rango-importin beta dissociation; Biochemical FRET Rango-importin beta, RanGTP-induced dissociation; AID 540253; actives 0.071% (n = 340,000); Potency, µM (titrated, usually from 46.1 µM), for inactives: at the top dose activity change, negative = inhibition; O95149+P62826; active means falling FRET ratio curve, often poorly fitted, with flat reads before Ran was added; inconclusive means other falling curves, or compound fluorescence or quenching; inactive means flat or rising ratio curve;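 also: potency is read from the fitted curve at half-maximal effect; % of control where 0% means no effect; nearly all actives have a fitted effect of over 45% in size; -100% = wells without RanGTP and RCC1; the record marks most hits as doubtful in a second field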
#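 Quantitative HTS using a FRET biosensor: 0.1 uM Rango, 0.25 uM importin beta, 0.6 uM Ran, 2 mM GTP, 0.2 uM RCC1 final, PBS with DTT, Tween-20 and BSA. Post-read taken 45 min after Ran addition.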
# An asterisk follows results filed as active; ? = inconclusive; . = no result given; & = joins results of further samples. A portion of the library (hit frequency here may not be typical).
# The first 7 compounds as a preview:
Rango-impB inh,GLA inh pH 4.5,miR-21 FLuc,Rango dissoc inh,Structure
-3.8%,.,-16%&-33%,-4%,CCOc1ccc(Cn2c(=O)oc3ccccc32)cc1
0.4%,7,-18%,0%,c1ccc(Cn2ccnc2SCc2nnc(-c3ccccc3)o2)cc1
2.3%,.,.,-6%,CCOC(=O)c1c(NC(=O)c2cccs2)sc(C(=O)N2CCOCC2)c1C
4.1%,2,-27%,-6%,O=C(Nc1nc2ccccc2[nH]1)C1CCCC1
0.1%,-8,-46%,23%,CC(C)(C)SCCNC(=O)/C=C/c1cccc([N+](=O)[O-])c1
-4.2%,1,0%,-8%,COCCNC(=O)C(c1cccnc1)N(Cc1ccc(C)cc1)C(=O)Cn1nnc2ccccc21 (centres undefined)
-0.5%,.,.,9%,CCc1cccc(C)c1NC(=O)CCN1C(=O)NC(C)(C)C1=O

# This part in full, repeating the preview:
Rango-impB inh,GLA inh pH 4.5,miR-21 FLuc,Rango dissoc inh,Structure
-3.8%,.,-16%&-33%,-4%,CCOc1ccc(Cn2c(=O)oc3ccccc32)cc1
0.4%,7,-18%,0%,c1ccc(Cn2ccnc2SCc2nnc(-c3ccccc3)o2)cc1
2.3%,.,.,-6%,CCOC(=O)c1c(NC(=O)c2cccs2)sc(C(=O)N2CCOCC2)c1C
4.1%,2,-27%,-6%,O=C(Nc1nc2ccccc2[nH]1)C1CCCC1
0.1%,-8,-46%,23%,CC(C)(C)SCCNC(=O)/C=C/c1cccc([N+](=O)[O-])c1
-4.2%,1,0%,-8%,COCCNC(=O)C(c1cccnc1)N(Cc1ccc(C)cc1)C(=O)Cn1nnc2ccccc21 (centres undefined)
-0.5%,.,.,9%,CCc1cccc(C)c1NC(=O)CCN1C(=O)NC(C)(C)C1=O
-0.6%,-11,5%,-1%,O=C(N/N=C/c1ccc(OC(F)F)cc1OC(F)F)NC1CCCCC1
3.8%,.,3%,1%,CCC(C)C(=O)Nc1ccc(S(=O)(=O)N2CCCC2)cc1 (centres undefined)
-2.2%,.,0%,9%,CCOc1ccc(NC(=O)CSc2nnc(C)n2CC)cc1

# One compound at a time (already shown):
# Listed for CCc1cccc(C)c1NC(=O)CCN1C(=O)NC(C)(C)C1=O → Rango-impB inh: -0.5%; GLA inh pH 4.5: .; miR-21 FLuc: .; Rango dissoc inh: 9%
# Listed for CCOC(=O)c1c(NC(=O)c2cccs2)sc(C(=O)N2CCOCC2)c1C → Rango-impB inh: 2.3%; GLA inh pH 4.5: .; miR-21 FLuc: .; Rango dissoc inh: -6%

# Results in Rango-impB inh and miR-21 FLuc, for six of the compounds above:
canonical_smiles | Rango-impB inh | miR-21 FLuc
CCOC(=O)c1c(NC(=O)c2cccs2)sc(C(=O)N2CCOCC2)c1C | 2.3% | .
O=C(Nc1nc2ccccc2[nH]1)C1CCCC1 | 4.1% | -27%
CC(C)(C)SCCNC(=O)/C=C/c1cccc([N+](=O)[O-])c1 | 0.1% | -46%
COCCNC(=O)C(c1cccnc1)N(Cc1ccc(C)cc1)C(=O)Cn1nnc2ccccc21 (centres undefined) | -4.2% | 0%
CCc1cccc(C)c1NC(=O)CCN1C(=O)NC(C)(C)C1=O | -0.5% | .
O=C(N/N=C/c1ccc(OC(F)F)cc1OC(F)F)NC1CCCCC1 | -0.6% | 5%

# More records:
Rango-impB inh,GLA inh pH 4.5,miR-21 FLuc,Rango dissoc inh,Structure
-0.2%,.,-7%,-5%,Cc1cc(C)cc(NC(=O)CN2C(=O)COc3ccc(S(=O)(=O)N4CCCC4)cc32)c1
4.3%,.,.,-14%,COc1ccc(OC)c(NC(=O)CN2C(=O)C(=O)N(Cc3ccccc3)C2=O)c1
1.7%,10,11%,0%,OC1(c2cccs2)CN(c2ccc(Cl)cc2)C2=[N+]1CCCC2 (centres undefined)
1.1%,-6,-11%,-13%,CC(C)c1ccc(/C=N/N2CCN(c3ccccn3)CC2)cc1
1.4%,7,3%,-9%,CCN(CC)S(=O)(=O)c1cc(C(=O)c2nccn2C)ccc1Cl
1.3%,-10,-3%,6%,COc1ccc(Cn2nnnc2C(c2cc3cc(C)ccc3[nH]c2=O)N2CCN(C)CC2)cc1 (centres undefined)
-0.9%,.,-4%,5%,Cc1c(C)c2ccc(OCC(=O)NCCCN3CCCC3=O)cc2oc1=O
-3.2%,-2,6%,-14%,O=C(c1cc2c([nH]c1=O)CCCC2)N1CCc2c([nH]c3ccccc23)C1c1ccccc1F (centres undefined)
-2.2%,.,.,13%,O=C(Cc1ccc(F)cc1)Nc1ccc(S(=O)(=O)N2CCCC2)cc1
?,-1,6%,-29%,COc1cc(/C=C/C(=O)N2CCCN(C(=O)/C=C/c3cc(OC)c(OC)c(OC)c3)CC2)cc(OC)c1OC
1.2%,0,-6%,1%,Cc1cc(N2CCN(C)CC2)n2cc(-c3ccc(F)cc3)nc2n1
0.1%,-5,-7%,1%,Cc1ccc(OCC(=O)N/N=C\c2ccc(O)cc2)c([N+](=O)[O-])c1
11%,1,-12%,1%,CCCCn1nnc(NC(=O)c2sc3cc(Cl)ccc3c2Cl)n1
5.8%,.,.,-3%,COc1ccc(Cl)cc1NC(=O)CN(C)C(=O)CN1C(=O)NC(C)(C)C1=O
1.8%,-9,-28%,-1%,C/C(=N\Nc1ncc(Cl)cc1Cl)c1ccc(C#N)cc1
3.4%,.,.,24%,Cc1ccccc1NC(=O)COC(=O)CCc1c[nH]c2ccccc12
?,0,29%&1%,-7%,Cc1cccc(NC(=O)Cn2cc(C(=O)c3ccco3)c3ccccc32)c1
3.8%,-18,-1%,0%,C/C(=N/NC(=O)c1ccncc1)C1=C(O)CC(C)(C)CC1=O
0.3%,3,3%,20%,O=C1OCC(CO)(CO)N=C1NNc1ccc(Cl)c(Cl)c1
-2.4%,6,-3%,1%,O=C(Nc1cccc([N+](=O)[O-])c1)c1ccc(CSc2ccccc2)cc1
-0.7%,-7,-2%,-2%,COc1ccc(NC(=O)CSc2ccc(-c3cccs3)nn2)c(OC)c1
?,7,-17%,?,O=C(/C=C/Nc1ccc(Oc2ccccc2Cl)cc1)c1ccco1
-3.5%,.,.,-15%,CC1CN(S(=O)(=O)c2cccc(C(=O)N=c3sccn3C)c2)CC(C)O1 (centres undefined)
-1.2%,-2,5%,18%,CC1CC(C)CN(C(=S)Nc2ccc(OC(F)F)cc2)C1 (centres undefined)
2.8%,.,-1%,-5%,C=CCN(Cc1nc(-c2ccccc2)no1)C(=O)c1ccc2c(c1)OCO2
-0.6%,-7,-3%,-7%,O=C(c1ccccc1-c1ccccc1)N1CCCC1
2.9%,.,16%,-9%,COc1cc(/C=N/NC(=O)c2cccnc2)ccc1OC(=O)c1cc(OC)c(OC)c(OC)c1
-3.2%,-22,-2%,1%,COc1ccc(OC)c(S(=O)(=O)N(C)CC(=O)Nc2cc(Cl)ccc2OC)c1
-3.0%,.,-5%,9%,CSc1ccc(C(=O)NCC(c2ccco2)N(C)C)cc1[N+](=O)[O-] (centres undefined)
0.3%,.,-1%,8%,C=CCNC(=O)c1oc2ccc(S(=O)(=O)N3CCC4(CC3)OCCO4)cc2c1C
0.3%,.,.,-14%,O=C(C[C@@H]1C/C=C\C[C@H](NC(=O)OCC2c3ccccc3-c3ccccc32)C(=O)OC[C@@H]2CCCN2C1=O)N[C@H](CO)Cc1ccccc1
0.4%,-19,-8%,-4%,CCOC(=O)c1ccc(NC(=O)NCc2ccncc2)cc1
0.6%,6,1%,1%,COC(=O)C(C)N(c1ccc(OC)cc1)S(C)(=O)=O (centres undefined)
1.8%,.,-4%,?,Cc1cc(NC(=O)CSc2nc(-c3ccc(Br)cc3)nc3c2c(=O)n(C)c(=O)n3C)no1
-0.3%,-4,0%,2%,CC(C)(C)c1cc(C(=O)NC2CC2)n(Cc2ccc(F)cc2)n1
-0.1%,-6,-9%,-1%,Cc1ccc(NC(=O)CSc2ccc(-c3ccc4c(c3)OCO4)nn2)cc1F
-0.1%,8,-13%,-13%,CCn1ncc(Cl)c1C(=O)Nc1cc(Cl)ccc1Cl
2.8%,-1,-3%,-2%,Cc1nc2ncnn2c(N2CCN(S(=O)(=O)c3ccc(Br)cc3)CC2)c1C
-5.4%,-3,-2%,-24%,CC(C)Cc1nc2oc3c(Cl)ncnc3c2c2c1CCCC2
